Screening results as filed in PubChem BioAssay.
Rango dissoc inh = prevents RanGTP from dissociating the Rango-importin beta complex; Biochemical FRET Rango-importin beta, RanGTP-induced dissociation; Potency, µM (top dose mostly 46.1 µM), without a hit: top-dose activity change, negative = inhibition; actives 0.071% (n = 340,000); active means falling FRET ratio curve, often poorly fitted, with flat reads before Ran was added; inconclusive means other falling curves, or compound fluorescence or quenching; inactive means flat or rising ratio curve;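 further: potency means the concentration at half of the fitted maximal effect; % of control where 0% means no effect; nearly all actives have a fitted effect of over 45% in size; -100% = wells without RanGTP and RCC1; the record marks most hits as doubtful in a second field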
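Quantitative HTS using a FRET biosensor: 0.1 uM Rango, 0.25 uM importin beta, 0.6 uM Ran, 2 mM GTP, 0.2 uM RCC1 final, PBS with DTT, Tween-20 and BSA. Post-read taken 45 min after Ran addition.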
GLA inh pH 4.5 = inhibitors of human alpha-galactosidase A at pH 4.5. P06280. purified enzyme, 4-MU-alpha-Gal fluorescence, pH 4.5. activity change, negative = inhibition, % at 105 µM. 230,000 tested, under 10 active. AID 1467; inconclusive = small, poorly fitted or top-dose-only inhibition, or a rising curve; inactive = flat fitted curve, though single readings scatter; no compound was filed as active;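 further: 0% = full activity with enzyme and -100% = basal without enzyme; dose as in the result columns while the protocol names 77 µM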
Target sequence (P06280 whole entry, looked up): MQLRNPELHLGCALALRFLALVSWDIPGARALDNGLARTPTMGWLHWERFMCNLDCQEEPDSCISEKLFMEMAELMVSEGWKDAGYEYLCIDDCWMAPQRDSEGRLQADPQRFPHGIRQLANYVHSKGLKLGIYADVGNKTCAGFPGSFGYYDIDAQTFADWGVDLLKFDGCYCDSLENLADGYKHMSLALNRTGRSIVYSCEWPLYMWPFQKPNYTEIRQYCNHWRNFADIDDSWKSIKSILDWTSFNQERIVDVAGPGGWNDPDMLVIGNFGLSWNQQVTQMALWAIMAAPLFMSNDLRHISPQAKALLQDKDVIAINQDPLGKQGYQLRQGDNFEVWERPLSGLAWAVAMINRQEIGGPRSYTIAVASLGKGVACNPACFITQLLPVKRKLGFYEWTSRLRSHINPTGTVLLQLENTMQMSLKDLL
miR-21 FLuc = raises the signal of a miR-21 reporter; HeLa miR-21 FLuc reporter, luciferase, 48 h; Potency, µM (highest dose often 38.3 µM), without a hit: top-dose reporter change, positive = more light; 340,000 tested, under 10 active; AID 2288; active = well fitted rising curve with a large enough effect; inconclusive = small, poorly fitted or top-dose-only effect; inactive = no such curve, though single readings can be large or run the other way;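 further: % of control where 0% means no effect; miR-21 action dims this reporter so a rising signal means less miR-21 action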
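HeLa cells endogenously expressing miR-21, stably carrying CMV-driven firefly luciferase with a downstream miR-21 binding site, 2000 cells/well. Titrations up to approximately 40 uM, 48 hours; luciferase luminescence read.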
Rango complex inh = inhibitors of Rango-importin beta complex formation | actives 0.031% (n = 340,000) | Q14974 | Potency, µM (doses to about 92.2 µM), for the others: top-dose inhibition of complex formation | Rango CFP/YFP FRET sensor + importin beta, 45 min; active = rising FRET ratio curve, often small or poorly fitted; inconclusive = mostly compound fluorescence or quenching in the first reads; inactive = flat curves in all reads;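 further: potency means the concentration at half of the fitted maximal effect; 0% = DMSO wells and 100% = buffer wells lacking importin beta; nearly all actives have a fitted effect of over 15% in size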
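FRET biosensor (snurportin 1 IBB flanked by EYFP and cerulean), 50 nM, with compound 5 min, then 0.125 microM importin beta in PBS, 1 mM DTT, 0.02% Tween-20, 0.1% BSA. CFP/YFP ratio read after 45 min at room temperature; pre-read flags interference.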
The depositor's hits bear a star; ? = inconclusive; / = not tested or not shown; & = joins results of further samples.

entry	Structure	Rango dissoc inh	GLA inh pH 4.5
1	Cn1c(SCC(=O)NCc2ccc(F)cc2)nc2ccccc21	-15%	-13
2	c1ccn2c(SCc3cn4ccsc4n3)nnc2c1	-13%	2
3	O=C(Cc1ccccc1)Nc1ccc(C(=O)Nc2ccc(O)cc2)cc1	-5%	/
4	CC(=O)Nc1ccc2c(c1)C(=O)N(C1CCCCC1)C2=O	-12%	1
5	O=C(O/N=C(/c1ccccc1)c1ccncc1)c1ccc(F)cc1	7%	1
6	COc1ccc(/C=N/NC(=O)CNC(=O)c2ccncc2)cc1OC	1%	/
7	COc1ccc(NC(=O)c2ccc(-c3ccc([N+](=O)[O-])cc3)o2)cc1OC	4%	-8
8	COC(=O)c1ccc(CNC(=O)c2sccc2-c2ccccc2)cc1	-10%	/
9	C=CCn1c(=O)c2ccccc2n2c(SCC(=O)N3CCCc4ccccc43)nnc12	24%	-5
10	CCN(CC)S(=O)(=O)c1ccc(Cl)c(NC(=O)COC(=O)c2nc3nc(C)cc(C)n3n2)c1	?	/

entry	miR-21 FLuc	Rango complex inh
1	-11%	1.1%
2	-39%	-2.3%
3	-12%	-1.1%
4	1%	-0.1%
5	-2%	0.7%
6	-1%	-0.8%
7	7%	-1.3%
8	/	-1.0%
9	0%	-1.1%
10	/	-0.8%

Later entries:
entry	Structure	Rango dissoc inh	GLA inh pH 4.5
11	N/C(=N\OC(=O)CCC1CCCCC1)c1cccnc1	1%	5
12	CC(NC(=O)Nc1nccs1)(C(F)(F)F)C(F)(F)F	-5%	3
13	Cc1ccc(C)c(Cn2nc3c4ccccc4n(Cc4ccccc4)cc-3c2=O)c1	5%	/
14	CCNC(=O)[C@H]1O[C@@H](n2cnc3c(N)nc(NCCc4ccc(CCC(=O)O)cc4)nc32)[C@H](O)[C@@H]1O	-6%	2
15	CC(C)NCC(O)(c1ccc(Cl)cc1)c1ccc(Cl)cc1	13%	-3
16	CN(C)/C=C/C(=O)c1ccc(C(F)(F)F)cc1F	10%	1
17	C=CCOc1ccc(C2/C(=C(\O)c3ccc(F)cc3)C(=O)C(=O)N2CCCN(C)C)cc1 (configuration not stated)	-1%	-3
18	O=C(CCc1ccccc1)Nc1c(F)c(F)c(F)c(F)c1F	3%	-5
19	O=C(CSCC(=O)Nc1nccs1)Nc1ccccc1	1%	10
20	CNC(=O)CN(c1cccc(Br)c1)S(C)(=O)=O	1%	-1

entry	miR-21 FLuc	Rango complex inh
11	-37%	0.3%
12	-2%	-1.2%
13	-7%	-3.6%
14	-21%	4.5%
15	10%	?
16	-34%	2.5%
17	-3%	-1.9%
18	-2%	-4.8%
19	2%	7.1%
20	-3%	1.8%

The list goes on:
entry	Structure	Rango dissoc inh	GLA inh pH 4.5
21	COCCNC(=O)NC(=O)CN1C(=O)NC(Cc2c[nH]c3ccccc23)C1=O (configuration not stated)	6%	/
22	O=C(O)c1c2c(nc3ccc(S(=O)(=O)N4CCC(C(=O)N5CCCCC5)CC4)cc13)CCCC2	0%	-10
23	CN(c1cccc(Cl)c1)S(=O)(=O)c1cccc(C(=O)Nc2nc3ccccc3[nH]2)c1	21%	-2
24	CCOC(=O)C1(Cc2cccc(Cl)c2)CCCN(C(=O)c2cnn(CC)c2)C1 (configuration not stated)	-4%	/
25	CCN(Cc1ccncc1)C(=O)CCc1nnc(CCC2CCCCC2)o1	1%	-1
26	O=C(c1ccc2oc(CCCc3ccccc3)nc2c1)N1CCCC1	-21%	/
27	CCOc1ccc(S(=O)(=O)NCc2ccco2)c2ccccc12	24%	-5
28	O=C(NCc1ccco1)C(Cc1ccccc1)N1C(=O)C2C3C=CC(C3)C2C1=O (configuration not stated)	-10%	8
29	CC(Sc1ccccc1)C(=O)NN=C1CCCCCCC1 (configuration not stated)	-6%	-4
30	CCc1ccc(NC(=O)[C@H](Cc2ccccc2)NC(=O)C2CCN(C(=O)[C@@H](N)CC(C)C)CC2)cc1	5%	/

entry	miR-21 FLuc	Rango complex inh
21	-1%	1.0%
22	-2%	?
23	26%	0.2%
24	-18%	1.8%
25	-10%	-2.5%
26	-53%	0.3%
27	-18%	1.9%
28	-6%	0.0%
29	-4%	1.8%
30	-1%	0.1%

Three compounds from above, showing only Rango complex inh:
entry	SMILES	Rango complex inh
26	O=C(c1ccc2oc(CCCc3ccccc3)nc2c1)N1CCCC1	0.3%
27	CCOc1ccc(S(=O)(=O)NCc2ccco2)c2ccccc12	1.9%
28	O=C(NCc1ccco1)C(Cc1ccccc1)N1C(=O)C2C3C=CC(C3)C2C1=O (configuration not stated)	0.0%

Next structures
entry	Structure	Rango dissoc inh	GLA inh pH 4.5
31	CCN(CC)CCCN(Cc1cc2cc3c(cc2[nH]c1=O)OCO3)C(=S)NCCCN(C)C	-6%	/
32	O=C(O)CCCc1ccc2ccc3cccc4ccc1c2c34	27%	/
33	CN1C(=O)C2(Nc3ccccc3-c3nc4ccccc4n32)c2ccccc21 (configuration not stated)	1%	-5
34	O=C(OC(c1ccccc1)c1nccc2ccccc12)c1ccccc1 (configuration not stated)	-8%	/
35	C=CCN(C(=O)c1csnn1)C(C(=O)NCc1ccc(F)cc1)c1cccs1 (configuration not stated)	1%	/
36	COCC(=O)OCC(=O)Nc1ccc(Cl)cc1[N+](=O)[O-]	0%	-2
37	CCOc1ccccc1NC(=O)COC(=O)c1cnc(C)cn1	23%	/
38	Cc1nc(NC(=O)COC(=O)CCC(=O)c2cccs2)c(Cl)cc1Cl	1%	-9
39	Cc1cc(C)nc(SCc2ccc(C(=O)N/N=C/c3cccnc3)cc2)n1	/	-1
40	O=C(CCN1CCN(Cc2ccccc2)CC1)Nc1cccc(Cl)c1	-3%	1

entry	miR-21 FLuc	Rango complex inh
31	1%	0.5%
32	-4%	-3.6%
33	1%	-2.1%
34	/	6.1%
35	0%	-2.6%
36	-6%	4.4%
37	/	0.0%
38	-2%	1.2%
39	-12%	/
40	0%	-3.5%

Additional entries
entry	Structure	Rango dissoc inh	GLA inh pH 4.5
41	c1ccc(CN(Cc2ccccc2)c2c3c(nc4ncnn24)CCC3)cc1	19%	-26
42	CC(C)(C)C1CCC(OC(=O)c2cncc(Br)c2)CC1 (configuration not stated)	-11%	-1
43	CCc1ccc(CN(C)C(=O)CCc2nnc(-c3ccc(-c4ccccc4)cc3)o2)nc1	18%	-6
44	CCOCCc1c(O)nc(SCCOc2ccc(C)c(C)c2)[nH]c1=O	-2%	6
45	COc1ccc(OC)c(-c2cc(C(=O)Nc3cc(C)on3)no2)c1	17%	6
46	COc1ccccc1CNC(=O)CCS(=O)(=O)c1ccc2c(c1)CCN2C(C)=O	-8%	/
47	Cc1sc2c(c1C)c(=O)n(-c1ccccc1)c1nnc(C)n21	3%	2
48	CC(C)NC(=O)c1c(CSc2ccccc2)noc1C(=O)NCc1ccccc1	0%	-8
49	Cc1ccc(-n2cc(CNCCc3cscn3)c(-c3ccc(F)cc3)n2)cc1	-8%	-16
50	CC(C)(C)C(=O)CSc1ncnc2c1cnn2-c1ccccc1	2%	-1

entry	miR-21 FLuc	Rango complex inh
41	-1%	-3.8%
42	-6%	4.3%
43	6%	-0.4%
44	-5%	-4.9%
45	-10%	3.2%
46	0%&-4%	2.3%
47	-9%	0.2%
48	7%	2.1%
49	-24%	-0.2%
50	-46%	-1.1%

The listing continues.
entry	Structure	Rango dissoc inh	GLA inh pH 4.5
51	C=CCNC(N)=S	1%	/
52	Clc1cccc(OCCCn2ccnc2)c1	3%	/
53	Cc1ccc(/C=C/C(=O)NC2CCS(=O)(=O)C2)cc1 (configuration not stated)	-9%	6
54	O=C(COc1cccc(C(F)(F)F)c1)Nc1ccc(S(=O)(=O)N2CCCCC2)cc1	7%	/
55	Oc1c(Cl)cc(Cl)c2cccnc12	-10%	-2&5
56	COc1ccc(/C=N/NC(=O)Cn2nc([N+](=O)[O-])cc2C)c(OC)c1OC	12%	-12
57	COc1ccc(S(=O)(=O)N2CCCCC2)cc1NC(=O)c1cccnc1SC	-1%	-2
58	COc1ccc(N2C(=O)CC(Sc3ncn[nH]3)C2=O)c(OC)c1 (configuration not stated)	5%	7
59	O=c1c2ccccc2nc2ccc(N3CCOCC3)nn12	0%	0
60	CCc1nccn1S(=O)(=O)c1ccc2ccc(C)cc2c1	0%	-15

entry	miR-21 FLuc	Rango complex inh
51	-3%	0.0%
52	-5%	-0.6%
53	-16%	-1.7%
54	/	-0.4%
55	?	1.0%
56	2%	-1.3%
57	-2%	-1.9%
58	10%	1.8%
59	-42%	3.9%
60	-5%	-1.8%

Next part:
entry	Structure	Rango dissoc inh	GLA inh pH 4.5
61	CC(C)NC(=O)NC(=O)COC(=O)c1cc[n+]([O-])cc1	-7%	?
62	COc1ccc(C2CC(c3cccs3)=NN2c2ccc(C=O)cc2)cc1 (configuration not stated)	?	1
63	COc1ccc(COc2cc(-c3cccc(OC)c3)nc3ccc(NC(C)=O)cc23)cc1	5%	-4&5
64	CC(C)CNC(=O)NC1C(NC(=O)NCC(C)C)N(C)C(=O)N1C (configuration not stated)	-4%	4
65	O=C(N/C(=C/c1ccc(Br)cc1)C(=O)N1CCCC1=O)c1ccco1	14%	0
66	Cc1ccc(C(=O)N/N=C\c2cccc(OC(=O)c3cccc(F)c3)c2)cn1	0%	/
67	CCC(=O)N1CCN(c2cc3c(cc2F)c(=O)c(C(=O)O)cn3CC)CC1	?	/
68	CNC(=O)CC1C(=O)N(Cc2ccccc2)C(=S)N1NC(=O)c1cccc(F)c1 (configuration not stated)	-8%	4
69	CC(C)n1nnnc1SCC(=O)c1c(N)n(C2CC2)c(=O)[nH]c1=O	-2%	/
70	O=C(O)CC/C(=C\c1ccc2c(c1)OCO2)c1nc2ccccc2s1	-8%	/

entry	miR-21 FLuc	Rango complex inh
61	-1%	-3.8%
62	-18%	?
63	1%	0.6%
64	6%	1.5%
65	1%	-0.2%
66	-5%	0.1%
67	/	-1.5%
68	4%	4.8%
69	/	1.8%
70	-17%	0.2%

(further entries)
entry	Structure	Rango dissoc inh	GLA inh pH 4.5
71	CN1CCN(C(=O)CN(c2cccc(Cl)c2)S(=O)(=O)c2ccccc2)CC1	5%	-1
72	COCCSc1nc(N)c(NC(=O)c2ccc(OC)cc2)c(=O)[nH]1	-9%	3
73	CCC(=O)Nc1ccccc1C(=O)NC1CCCCC1	-17%	-2
74	COc1ccccc1OCc1nc(C#N)c(N2CCCC2)o1	-2%	1
75	O=C(NNC(=O)C1CCCCC1)C(=O)NC1CCCCC1	-3%	1
76	CN(C(=O)CSc1nnc2n1CCCCC2)C1(C#N)CCCCC1	?	/

entry	miR-21 FLuc	Rango complex inh
71	0%	-0.6%
72	-2%	4.1%
73	-9%	1.0%
74	-9%	0.3%
75	-2%	-2.4%
76	/	0.7%

5 entries already listed, arranged by heavy-atom count, lowest first.
entry	Structure	Rango dissoc inh	GLA inh pH 4.5
73	CCC(=O)Nc1ccccc1C(=O)NC1CCCCC1	-17%	-2
75	O=C(NNC(=O)C1CCCCC1)C(=O)NC1CCCCC1	-3%	1
74	COc1ccccc1OCc1nc(C#N)c(N2CCCC2)o1	-2%	1
69	CC(C)n1nnnc1SCC(=O)c1c(N)n(C2CC2)c(=O)[nH]c1=O	-2%	/
71	CN1CCN(C(=O)CN(c2cccc(Cl)c2)S(=O)(=O)c2ccccc2)CC1	5%	-1

entry	miR-21 FLuc	Rango complex inh
73	-9%	1.0%
75	-2%	-2.4%
74	-9%	0.3%
69	/	1.8%
71	0%	-0.6%

An excerpt (hit frequency here may not be typical).
